NS1 function inh = influenza NS1 inhibition; S. cerevisiae slowed by influenza A NS1, growth recovery by OD600; Potency, µM (top dose mostly 46.1 µM), for inactives: at the highest dose activity, positive = more growth; 270,000 compounds, 0.4% hits; AID 2326; active means well fitted rising curve with a large enough effect; inconclusive means small, poorly fitted or top-dose-only effect; inactive means no such curve, though single readings can be large or run the other way; further: nearly all actives have a fitted effect of over 50% in size
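A cell-based growth assay was used: compounds that relieve NS1-induced slow growth of budding yeast raise OD600. Assay medium was yeast nitrogen base with ammonium sulphate and -URA supplement, pH 6.0, with 2% galactose.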
LASV entry inh = Lassa virus entry inhibition. Lassa virus pseudotype entry inhibition, cell reporter; control for the full effect not named in the record. Potency, µM (top dose mostly 37.9 µM), inactives show top-dose activity change, negative = inhibition, actives largely listed as inhibitors. 300,000 compounds, 1.2% hits. AID 540256; active means well fitted inhibition curve with a large enough effect; inconclusive means small, poorly fitted or top-dose-only effect, or effect the other way; inactive means flat fitted curve, though single readings scatter; tested in HEK293 cells; further: on the % scale 0 is the no-effect control and ±100 the full control effect; nearly all actives have a fitted effect of over 50% in size; luciferase read-out
Cruzain inh noDet = inhibitors of Trypanosoma cruzi cruzain without detergent; P25779; purified cruzain, Z-FR-AMC fluorescence, no detergent; 200,000 compounds, 2.3% hits; Potency, µM, for the others: max response, negative = inhibition, usual class: inhibitors;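 further: plate controls were enzyme without inhibitor for no effect and buffer without enzyme for full effect; nearly all actives have a fitted effect of over 40% in size; top concentration of the series not given in the record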
Target sequence (P25779 123-467 limits assumed): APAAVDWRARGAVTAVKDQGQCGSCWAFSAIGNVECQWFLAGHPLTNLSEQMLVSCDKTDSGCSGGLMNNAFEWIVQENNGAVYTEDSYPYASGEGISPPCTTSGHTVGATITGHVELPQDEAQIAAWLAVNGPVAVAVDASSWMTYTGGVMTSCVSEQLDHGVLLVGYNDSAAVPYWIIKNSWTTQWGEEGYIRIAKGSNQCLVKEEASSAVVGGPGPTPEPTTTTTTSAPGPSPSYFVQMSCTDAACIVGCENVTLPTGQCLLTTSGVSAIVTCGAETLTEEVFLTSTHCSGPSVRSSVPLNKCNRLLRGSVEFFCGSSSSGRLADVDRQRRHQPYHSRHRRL
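Detergent-free condition (0.00005% Triton X-100) in acetate buffer pH 5.5 with DTT. 1.5 nM enzyme and compound were pre-mixed 15 min, then 2 uM Z-FR-AMC substrate added; reaction progress from fluorescence change between first and third reads (60 s).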
Marburg entry inh = inhibitors of Marburg virus binding or cell entry | 300,000 compounds, 1.8% hits | AID 540276 | Marburg virus pseudotyped entry inhibition, cell reporter; control for the full effect not named in the record; about a third of the inactives were read at about 46 µM | Potency, µM (titrated, usually from 37.8 µM), without a hit: top-dose activity change, negative = inhibition, hits mostly inhibitors; active = well fitted inhibition curve with a large enough effect; inconclusive = small, poorly fitted or top-dose-only effect, or effect the other way; inactive = flat fitted curve, though single readings scatter; tested in HEK293 cells; about a fifth of its hits are not listed in these tables; further: on the % scale 0 is the no-effect control and ±100 the full control effect; luciferase read-out
RE007 growth inh = less growth of the S. pombe RE007 Vpr strain; S. pombe RE007 Vpr strain, BacTiter-Glo ATP luminescence, 24 h; control for the full effect not named in the record; Potency, µM (series often up to 92.2 µM), inactives show top-dose activity change, negative = less growth; 360,000 compounds, 0.21% hits; AID 651644; active = well fitted falling curve with a large enough effect; inconclusive = small, poorly fitted or top-dose-only effect; inactive = no such curve, though single readings can be large or run the other way;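 further: on the % scale 0 is the no-effect control and ±100 the full control effect; nearly all actives have a fitted effect of over 50% in size; the assay follows cell death caused by Vpr and the record does not say whether a fall means rescue or toxicity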
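Fission yeast strain RE007, carrying one chromosomally integrated HIV-1 vpr copy, was seeded at OD 0.01 in PMG+AL medium with 23 nL pinned compound. After 24 h at 30 °C and 99% humidity, viability was read by BacTiter-Glo luminescence.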
Cruzain Triton = cruzain (T. cruzi) inhibition with detergent. Potency, µM, without a hit: max response, negative = inhibition, usual class: inhibitors. AID 1478. P25779. 200,000 compounds, 0.43% hits. purified cruzain, Z-FR-AMC fluorescence, 0.01% Triton;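 further: plate controls were neutral wells for no effect and buffer without enzyme for full effect; nearly all actives have a fitted effect of over 40% in size; top concentration of the series not given in the record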
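Cysteine protease activity tested under reducing, mildly acidic conditions (100 mM sodium acetate pH 5.5, 5 mM DTT) plus 0.01% Triton X-100. Cruzain 1.5 nM; substrate Z-FR-AMC 2 uM; 15 min compound preincubation at room temperature.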
StopGo reporter = lowers the luciferase signal of an FMDV 2A StopGo reporter; human cells with a luciferase reporter of 2A StopGo recoding; control for the full effect not named in the record; Potency, µM (top dose mostly 57.9 µM), inactives show at the top dose signal change, negative = less light; 410,000 compounds, 1.2% hits; active = well fitted falling curve with a large enough effect; inconclusive = small, poorly fitted or top-dose-only effect; inactive = no such curve, though single readings can be large or run the other way; tested in HEK293T cells; further: on the % scale 0 is the no-effect control and ±100 the full control effect; nearly all actives have a fitted effect of over 45% in size; luciferase light after 4 h
SARS PLpro yeast = blocks SARS-CoV papain-like protease in a yeast assay; S. cerevisiae expressing SARS-CoV PLpro, growth rescue; control for the full effect not named in the record; 330,000 compounds, 0.19% hits; AID 485353; Potency, µM (titrated, usually from 32.9 µM), for the others: top-dose activity, positive = growth rescue; active means well fitted rising curve with a large enough effect; inconclusive means small, poorly fitted or top-dose-only effect; inactive means no such curve, though single readings can be large or run the other way; further: 0% is about no effect; nearly all actives have a fitted effect of over 55% in size; growth read by luminescence after 48 h
* = called active by the depositor; ? = inconclusive; · = no result given; & = joins results of further samples; [ ] = remark or other dose. Unless noted, the call rests on the fitted dose curve; in most records, active means well fitted curve in the direction sought with a large enough effect; inconclusive means small, poorly fitted or top-dose-only effect, or another doubt; inactive means no such curve, though single readings can be large; an effect the other way counts as inactive or inconclusive. Potency means the concentration at half of the fitted maximal effect. Random draw from the library (roughly 4.6% active in at least one column).

No.	SMILES	NS1 function inh	LASV entry inh	Cruzain inh noDet	Marburg entry inh	RE007 growth inh	Cruzain Triton	StopGo reporter	SARS PLpro yeast
1	CNC(=O)n1ccc(C(=O)N2CCCCC2)n1	6.3%	1.4%	6.0%	7.5%	25.6%	0.3%	-3.8%	-3.7%
2	CCOc1ccc(CNC(c2ccccc2)c2ccccc2)cc1	-18.4%	-14.4%[46.1 µM]	·	-23.9%[46.1 µM]	-5.9%	·	-24.3%	-1.8%
3	O=C(Cn1c(NCCCO)nc2ccccc21)c1ccc(F)cc1	23.2%	·	·	·	-10.7%	·	-0.5%	0.7%
4	O=S(=O)(Nc1cccc(-n2cnnn2)c1)c1ccccc1F	7.2%	·	·	·	20.4%	·	8.5%	-4.0%
5	CC(C)c1ccc(S(=O)(=O)c2cn(Cc3ccc(F)cc3)c3cc4c(cc3c2=O)OCO4)cc1	19.7%	-3.5%	?	-9.9%	·	-1.6%	·	26.3%
6	CC(Oc1cccc(Cl)c1)C(=O)Nc1ccc(S(=O)(=O)NC2=NCCCCC2)cc1 (stereo not given)	·	-17.0%[46.1 µM]	·	-19.9%	-14.3%	·	-7.4%	2.2%
7	COCCN1CCN(C(=O)C2CCC(=O)N(CCCc3ccccc3)C2)CC1 (stereo not given)	12.1%	12.5%	·	16.7%	19.4%	·	-23.7%	-1.4%
8	CCOC(=O)C1=C(CSc2nc(-c3ccncc3)ccc2C#N)OC(N)=C(C#N)C1c1cccnc1 (stereo not given)	6.7%	4.7%	-8.8%	0.6%&0.0%	29.1%	-10.2%	-2.6%	0.9%
9	CN(c1ccc(C(=O)N2CCOCC2)cc1)S(=O)(=O)c1ccc(Cl)cc1	-2.1%	14.8%	·	-2.5%	0.3%	·	-15.5%	9.7%
10	Cc1noc(C)c1C(=O)NC(C)C1CCCO1 (stereo not given)	5.7%	4.1%	-0.7%	5.2%	11.0%	5.6%	5.4%	-2.4%
11	O=C(CCCCn1c(=O)[nH]c2ccsc2c1=O)NCC1CCCO1 (stereo not given)	0.8%	9.5%	-1.5%	-16.7%	17.4%	1.5%	7.8%	1.4%
12	CCCn1nc(Oc2nc(N(C)C)nc(N(C)C)n2)ccc1=O	-1.0%	-1.6%	·	3.9%[46.1 µM]	11.3%	·	-3.1%	0.7%
13	COC(=O)c1sc(NC(=O)/C=C/c2ccc(C)cc2)nc1C	14.3%	6.3%	3.8%	?	19.4%	1.0%	17.5%	5.3%
14	CCOC(=O)c1[nH]c2ccc(OC)cc2c1NC(=O)CCN1CCN(Cc2ccccc2)CC1	7.8%	?	2.6%	?	4.4%	2.9%	-0.3%	0.9%
15	CCOc1ccc(NC(C)c2cc(Cl)ccc2O)cc1 (stereo not given)	-46.4%	5.2%	-9.2%	-4.9%	-16.2%	-2.2%	-5.5%	-3.0%

Structures from the list above with fluorine, in the order listed:
No.	SMILES	NS1 function inh	LASV entry inh	Cruzain inh noDet	Marburg entry inh	RE007 growth inh	Cruzain Triton	StopGo reporter	SARS PLpro yeast
3	O=C(Cn1c(NCCCO)nc2ccccc21)c1ccc(F)cc1	23.2%	·	·	·	-10.7%	·	-0.5%	0.7%
4	O=S(=O)(Nc1cccc(-n2cnnn2)c1)c1ccccc1F	7.2%	·	·	·	20.4%	·	8.5%	-4.0%
5	CC(C)c1ccc(S(=O)(=O)c2cn(Cc3ccc(F)cc3)c3cc4c(cc3c2=O)OCO4)cc1	19.7%	-3.5%	?	-9.9%	·	-1.6%	·	26.3%

Continuation.
No.	SMILES	NS1 function inh	LASV entry inh	Cruzain inh noDet	Marburg entry inh	RE007 growth inh	Cruzain Triton	StopGo reporter	SARS PLpro yeast
16	O=C(c1ccc(=O)[nH]c1)N(Cc1ccco1)C1(C(=O)NC2CCCC2)CCCCC1	1.8%	2.8%	0.5%	-16.7%	-11.8%	5.1%	-2.3%	12.5%
17	O=C(CSc1nnc(SCc2ccccc2)s1)N/N=C/c1ccc(C(=O)O)cc1	13.9%	?	·	-3.2%[46.1 µM]	6.4%	·	15.7%	0.6%
18	CCOc1cc(C2NC(=S)NC(C)=C2C(=O)Nc2ccccc2)ccc1O (stereo not given)	0.1%	?	·	12.7%[46.1 µM]	2.6%	·	2.3%	1.1%
19	CC(Sc1n[nH]c(N)n1)c1nc2scc(-c3cccs3)c2c(=O)[nH]1 (stereo not given)	1.6%	-2.3%	2.2%	?	34.4%	-2.2%	?	4.3%
20	COc1ccc(Cn2nnnc2CN(Cc2cc3cccc(C)c3[nH]c2=O)C2CCCC2)cc1	-43.0%	?	1.4%	?	-9.2%	0.9%	·	-3.4%
21	CC(SCC(=O)NC12CC3CC(CC(C3)C1)C2)C(=O)O (stereo not given)	18.8%	0.2%	0.7%	?	16.5%	1.7%	-15.3%	2.5%
22	CCOc1ccc(-c2ccc(/C=C3/C(=N)N4C(C)=CSC4=NC3=O)o2)c([N+](=O)[O-])c1	9.0%	6.4%	9.9%	?	-6.5%	-11.2%	-25.5%	-1.8%
23	CC1CC(C)CN(S(=O)(=O)c2ccc(C(=O)NNC(=O)c3ccccc3F)cc2)C1 (stereo not given)	·	-25.4%	·	?	-0.4%	·	-18.7%	-2.5%
24	O=C(Cn1cnc2c(cnn2-c2ccccc2)c1=O)NC1CCCC1	-9.1%	·	6.7%	·	2.6%	6.1%	18.9%	6.0%
25	O=C(COc1ncnc2cc(Cl)ccc12)c1ccccc1	-39.6%	·	·	·	-9.9%	·	18.0%	1.3%
26	CN(CC(=O)Nc1ccc(F)cc1)C(=O)CSc1nnc(Cc2ccccc2)o1	·	2.0%	·	19.5%	4.3%	·	-3.3%	-1.1%
27	COc1cc(N2CCOCC2)ccc1C=C1C(=O)NC(=O)NC1=O	20.8%	11.2%	-9.8%	16.1%	18.2%	-0.8%	-13.9%	7.5%
28	COc1ccc(C2CC(c3ccco3)n3ncnc3N2)cc1 (stereo not given)	-5.2%	·	-2.6%	·	5.4%	-3.9%	-3.8%	-31.0%
29	COCCNC(=O)c1ccc(NC(C)=O)cc1	-21.5%	10.3%	8.0%	22.9%	4.9%	5.4%	20.5%	24.0%
30	Cc1cc(NC(=O)c2cnccn2)no1	-4.7%	·	2.7%	0.0%	·	2.4%	·	-8.5%
31	CCOC(=O)c1c(C)nc2sc(C(=O)Nc3ccc(C(C)=O)cc3)c(N)c2c1-c1ccc(OC)cc1	?	?	?	2.82µM*	-11.2%	4.2%	?	7.9%
32	COCCCNC(=O)c1cc2c(s1)CS(=O)(=O)C2	-0.8%	1.5%	5.4%	?	-7.5%	3.9%	·	7.8%
33	N#CC1(C#N)CC(C=O)=C(N)C1(C#N)CC(=O)C12CC3CC(CC(C3)C1)C2 (stereo not given)	-11.3%	?	0.8%	?	-2.3%	-9.9%	22.4µM*	-10.3%
34	O=C(Cn1c(=O)nc(-c2ccccc2)c2cc(Cl)ccc21)NCCCc1ccccc1	·	-4.2%[46.1 µM]	20.4%	-16.6%[46.1 µM]	·	-6.7%	-14.2%	·
35	COc1ccc(NC(=O)CSCC(=O)Nc2ccc(S(=O)(=O)N3CCCC3)cc2)cc1	1.8%	-5.6%	·	8.5%	15.1%	·	1.8%	-1.2%
36	CC1(C)CC(=O)c2c(noc2-c2ccccc2)C1	1.8%	15.5%	-0.9%	12.1%	-18.2%	0.3%	30.1%[activator]	18.5%
37	CCc1cc2c(cc3c(=O)n(CC(=O)N4CCN(c5cc(Cl)ccc5C)CC4)ncn32)s1	·	·	-9.9%	-2.3%[46.1 µM]	·	-1.7%	0.0%	·
38	COc1ccc(C)c2sc(NC(=O)C3CC3)nc12	-63.6%	·	·	·	11.9%	·	8.1%	3.6%
39	CCc1nnc(NS(=O)(=O)c2ccc(NC(=O)/C=C/c3ccccc3Cl)cc2)s1	7.7%	-0.1%	·	-6.8%[46.1 µM]	7.6%	·	6.8%	0.2%
40	Cc1ccc(C(=O)Nc2ccc3c(c2)nc(CCNC(=O)c2ccco2)n3C)cc1	16.3%	?	·	?	-11.2%	·	44.0%[activator]	5.0%
41	Cc1cc(C)c2c(-n3cccc3)n[nH]c2n1	-1.9%	-22.9%	0.4%	-4.0%	-11.3%	2.7%	-28.6%	0.3%
42	O=c1[nH]cnc2c1ncn2[C@H]1CC[C@@H](CO)O1	·	·	-3.5%&-1.9%	·	6.9%	4.6%&5.1%	-16.0%	5.8%
43	Cc1nnc(N/N=C\c2ccc(-c3cccc(C(=O)O)c3)o2)n1N	0.1%	·	·	·	-26.1%	·	-15.6%	-5.4%
44	COc1ccc(C(=O)Nc2noc3ccccc23)cc1	·	-9.9%[46.1 µM]	-6.9%	?	·	-3.9%	-86.2%	·
45	CCOC(=O)C1CCCN(C(=O)c2cccc3ccccc23)C1 (stereo not given)	-3.1%	12.5%[46.1 µM]	·	-3.9%[46.1 µM]	-18.8%	·	-9.9%	-10.9%
46	Cn1c(=O)c2c(SCC(=O)Nc3ccccc3C(F)(F)F)nc(C3CCCC3)nc2n(C)c1=O	·	0.4%[46.1 µM]	7.5%	·	·	2.0%	-1.9%	·
47	O=C(c1ccccc1)N1CCN(c2ncccn2)CC1	7.8%	·	·	·	11.0%	·	8.7%	6.7%
48	COc1cc(NC(=O)c2cc3ccccc3cc2O)c(OC)cc1Cl	-43.4%	·	·	·	-3.0%	·	12.6µM*	-1.8%
49	COc1cc(CN2CCCN(C)CC2)c([N+](=O)[O-])cc1OC	16.1%	10.4%[46.1 µM]	·	9.0%[46.1 µM]	5.2%	·	-9.9%	0.4%
50	CNc1ccc(Oc2c(F)c(F)nc(F)c2F)cc1	4.6%	·	·	·	3.9%	·	-10.1%	-0.1%
51	O=C(CCCCn1c(=O)[nH]c2ccsc2c1=O)N1CCN(c2cccc(C(F)(F)F)c2)CC1	·	-17.3%[46.1 µM]	?	?	·	-10.6%	39.8µM*	·
52	Cc1ccccc1N(C(=O)CCC(=O)Nc1ccccn1)C(C(=O)NC(C)C)c1ccc(F)cc1 (stereo not given)	-10.1%	·	·	?	9.9%	·	2.7%	3.3%

From PubChem
